From PubChem
Yeast UUG start: yeast start codon fidelity modulation; hit rate 0.13% among 350,000; S. cerevisiae UUG-firefly luciferase reporter, luminescence/redox ratio; activity score, % at 18.7 µM;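 active = replicate mean at a twofold rise or more, about +100% in these data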;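 also: firefly luciferase made from a UUG start codon reports start codon fidelity; reporter light over untreated wells divided by growth signal over untreated wells; some hits fall short of that in this replicate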
* = called active by the depositor. Not all compounds are listed; count on the stated rates, not on these rows.

SMILES	Yeast UUG start
CO[C@H]1CN(C)C(=O)c2cc(NC(=O)Nc3cccc(F)c3)ccc2OC[C@H](C)NC[C@@H]1C	2.3
O=C(c1cccnc1)N1CCCCN2[C@H](CO)[C@H](c3ccc(C#Cc4cccnc4)cc3)[C@H]2C1	-22.4
C[C@H](CO)N1C[C@H](C)[C@H](CN(C)Cc2ccc3c(c2)OCO3)Oc2c(NS(=O)(=O)c3ccc(F)cc3)cccc2C1=O	7.7
COCC#Cc1ccc([C@@H]2[C@H](CO)N3CCCCN(Cc4cccnc4)C[C@@H]23)cc1	-1.5
C[C@@H]1CN([C@@H](C)CO)C(=O)c2cccc(NC(=O)NC3CCCCC3)c2O[C@@H]1CN(C)S(=O)(=O)c1ccc(F)cc1	1.1
CCC(=O)N1[C@H](CO)[C@H](c2ccccc2)[C@@H]1CN(CC)C(=O)c1ccc(F)cc1	-6.2
COCC(=O)N1C[C@H](C)[C@H](OC)CN(C)C(=O)c2cc(NC(=O)c3ccccc3)ccc2OC[C@H]1C	3.5
COCC(=O)Nc1ccc2c(c1)OC[C@H](C)N(Cc1ccccc1F)C[C@H](C)[C@@H](OC)CN(C)C2=O	-2.5
CC(C)CC#Cc1ccc2c(c1)O[C@H](CN(C)Cc1ccccc1F)[C@@H](C)CN([C@H](C)CO)S2(=O)=O	16.2
C[C@H](O)C#Cc1ccc([C@@H]2[C@H]3CN(CC4CCOCC4)CCCCN3[C@H]2CO)cc1	8.0
COc1ccc(S(=O)(=O)Nc2cccc3c2O[C@H](CN(C)C(=O)NC2CCCCC2)[C@H](C)CN([C@@H](C)CO)C3=O)cc1	27.5
CCC(=O)N1[C@@H](CO)[C@@H](c2ccc(-c3cccc(F)c3)cc2)[C@@H]1CN(C)C(C)=O	-3.4
C[C@H]1CN([C@@H](C)CO)C(=O)Cc2cc(NS(=O)(=O)c3ccccc3)ccc2O[C@H]1CN(C)C(=O)NC1CCCCC1	0.0
C[C@@H]1CN([C@@H](C)CO)C(=O)c2cccc(NC(=O)c3cnccn3)c2O[C@H]1CN(C)Cc1ccc(-c2ccccc2)cc1	-11.0
CCCNC(=O)C[C@H]1CC[C@@H]2[C@@H](COc3ccc(NC(=O)c4ccc(C(F)(F)F)cc4)cc3C(=O)N2C)O1	11.8
CN1CCN(C(=O)C[C@@H]2CC[C@H]3[C@@H](COC[C@@H](O)CN3C(=O)c3ccc(F)cc3)O2)CC1	-17.3
O=C(c1ccc2c(c1)OCO2)N1C[C@@H]2[C@H](c3ccccc31)[C@@H](CO)N2Cc1ccccc1Cl	4.9
C[C@H]1CN([C@@H](C)CO)C(=O)c2ccccc2-c2ccccc2CO[C@@H]1CN(C)C(=O)Nc1ccccc1	5.1
O=C(C1CCC1)N1C[C@H]2[C@@H](c3ccccc31)[C@H](CO)N2S(=O)(=O)c1ccccc1	40.6
C[C@H]1CN([C@@H](C)CO)C(=O)c2cc(NC(=O)C3CCCCC3)ccc2O[C@H]1CN(C)S(=O)(=O)c1ccc(F)cc1	19.5

Some of the entries so far, with the structure last:
Yeast UUG start,molecule
3.5,COCC(=O)N1C[C@H](C)[C@H](OC)CN(C)C(=O)c2cc(NC(=O)c3ccccc3)ccc2OC[C@H]1C
40.6,O=C(C1CCC1)N1C[C@H]2[C@@H](c3ccccc31)[C@H](CO)N2S(=O)(=O)c1ccccc1

The list continues.
SMILES	Yeast UUG start
CCCNC(=O)Nc1ccc2c(c1)OC[C@H](C)N(C(=O)C1CCC1)C[C@H](C)[C@H](OC)CN(C)C2=O	13.5
COc1ccccc1S(=O)(=O)N1CC[C@@H]2[C@@H](CO)N(C)c3ccc(-c4ccc(F)cc4)cc3[C@@H]21	0.9
C[C@@H]1CN([C@@H](C)CO)C(=O)c2cccc(NC(=O)C3CCCCC3)c2O[C@@H]1CN(C)C(=O)Nc1cccc2ccccc12	-2.9
CN(C)C(=O)c1ccc(-c2ccc([C@H]3[C@H](CO)N4CCCCN(CCC(F)(F)F)C[C@@H]34)cc2)cc1	15.3
C[C@H]1CN([C@@H](C)CO)C(=O)c2cccc(NC(=O)c3nc4ccccc4s3)c2O[C@H]1CN(C)CC1CCCCC1	9.4
O=C(Nc1ccccc1)N1CCCCN2[C@@H](CO)[C@@H](c3ccc(C#Cc4cccnc4)cc3)[C@@H]2C1	5.1
O=C(C[C@@H]1CC[C@@H]2[C@H](COC[C@@H](O)CN2C(=O)Nc2ccc(Cl)c(Cl)c2)O1)NCc1ccc(Cl)c(Cl)c1	-13.5
COc1ccc(NC(=O)N2C[C@H](O)COC[C@@H]3O[C@@H](CC(=O)NCc4ccncn4)CC[C@H]32)cc1	-6.3
CC(C)NC(=O)N(C)C[C@@H]1Oc2c(NS(=O)(=O)c3ccc(F)cc3)cccc2C(=O)N([C@@H](C)CO)C[C@@H]1C	-2.4
Cc1cccc(S(=O)(=O)N2CCCCN3[C@H](C2)[C@H](c2ccc(C#C[C@@H](C)O)cc2)[C@@H]3CO)c1	-1.9
CO[C@H]1CN(C)C(=O)c2cc(NC(=O)C3CC3)ccc2OC[C@@H](C)NC[C@@H]1C	-5.9
COc1ccc(S(=O)(=O)Nc2ccc3c(c2)C(=O)N([C@H](C)CO)C[C@H](C)[C@H](CN(C)Cc2ccc(C(F)(F)F)cc2)O3)cc1	5.9
C[C@H]1CN([C@@H](C)CO)C(=O)c2cccc(NS(=O)(=O)c3cccs3)c2O[C@@H]1CN(C)S(=O)(=O)c1ccccc1	-0.3
C[C@H](CO)N1C[C@H](C)[C@H](CN(C)Cc2ccncc2)Oc2ccc(NC(=O)Cn3cnnn3)cc2CC1=O	-18.7
C[C@H](CO)N1C[C@H](C)[C@H](CN(C)S(C)(=O)=O)Oc2ccc(NC(=O)Nc3ccccc3)cc2C1=O	7.4
O=C(NC1CCCC1)N1CCCCN2[C@H](C1)[C@@H](c1ccc(-c3cncnc3)cc1)[C@@H]2CO	-11.6
C[C@H]1CN([C@@H](C)CO)C(=O)c2cc(NS(=O)(=O)c3cn(C)cn3)ccc2O[C@@H]1CN(C)Cc1ccc(Oc2ccccc2)cc1	-3.0
C/C=C/c1ccc([C@H]2[C@@H](CO)N(S(C)(=O)=O)[C@@H]2CN(CC)C(=O)CC)cc1	11.1
CCCNC(=O)N1[C@H](CO)[C@H](c2ccc(C3=CCCC3)cc2)[C@@H]1CN(C)C(C)=O	17.0
CN1C[C@H]2[C@@H](c3ccccc31)[C@@H](CO)N2C(=O)c1cccnc1	-10.8

Structures shown so far that have a Cl atom (2):
SMILES	Yeast UUG start
O=C(c1ccc2c(c1)OCO2)N1C[C@@H]2[C@H](c3ccccc31)[C@@H](CO)N2Cc1ccccc1Cl	4.9
O=C(C[C@@H]1CC[C@@H]2[C@H](COC[C@@H](O)CN2C(=O)Nc2ccc(Cl)c(Cl)c2)O1)NCc1ccc(Cl)c(Cl)c1	-13.5

Remaining list, next part.
SMILES	Yeast UUG start
CC(C)NC(=O)Nc1cccc2c1O[C@@H](CN(C)Cc1ccc(Oc3ccccc3)cc1)[C@H](C)CN([C@H](C)CO)C2=O	15.0
CN(C[C@H]1N[C@@H](CO)[C@@H]1c1ccc(C2=CCCC2)cc1)C(=O)c1ccccn1	-11.6
O=S(=O)(c1ccccc1)N1CCCCN2[C@H](CO)[C@H](c3ccc(C#CC4CCCC4)cc3)[C@@H]2C1	8.9
C[C@@H]1CN([C@@H](C)CO)C(=O)c2cc(NC(=O)CCN3CCOCC3)ccc2O[C@@H]1CN(C)Cc1ccc(Oc2ccccc2)cc1	0.2
C[C@@H]1CN([C@H](C)CO)C(=O)CCCn2nncc2CO[C@@H]1CN(C)Cc1ccc(C(=O)Nc2ccccc2N)cc1	-4.1
CCCNC(=O)Nc1ccc2c(c1)OC[C@@H](C)N(Cc1ccc(-c3ccccn3)cc1)C[C@@H](C)[C@@H](OC)CN(C)C2=O	-1.7
CO[C@@H]1CN(C)C(=O)c2ccc(NC(=O)c3ccc(F)cc3)cc2OC[C@H](C)N(C(C)=O)C[C@@H]1C	7.2
COc1ccc(NC(=O)N2CCCCN3[C@H](CO)[C@H](c4ccc(C#Cc5ccccc5)cc4)[C@H]3C2)cc1	2.5
CCN(CC(=O)Nc1c(F)cccc1F)C(=O)CSC(=S)N1CCCC1	-15.7
C[C@@H]1CN([C@@H](C)CO)C(=O)c2cc(NS(=O)(=O)c3cn(C)cn3)ccc2O[C@H]1CN(C)S(=O)(=O)c1cccs1	-10.9
CC(=O)N1[C@H](CN(CC2CCC2)C(=O)CC2CC2)[C@@H](c2ccccc2)[C@@H]1CO	1.2
O=S(=O)(c1ccc(F)cc1)N1CCCCN2[C@@H](CO)[C@H](c3ccc(-c4ccccc4F)cc3)[C@@H]2C1	-5.6
COc1ccc(CN(C)C[C@H]2Oc3ccc(NS(=O)(=O)c4ccccc4)cc3C(=O)N([C@@H](C)CO)C[C@@H]2C)cc1	11.7
Cc1noc(C)c1S(=O)(=O)N(C)C[C@@H]1Oc2ccc(NS(=O)(=O)c3cccs3)cc2C(=O)N([C@H](C)CO)C[C@@H]1C	1.9
C[C@@H]1CN([C@H](C)CO)C(=O)c2cc(NC(=O)Nc3ccccc3)ccc2O[C@H]1CN(C)CC1CCCCC1	8.4
O=C(C[C@@H]1CC[C@@H]2[C@H](COC[C@@H](O)CN2Cc2nccs2)O1)NCc1ccccc1F	3.8
CO[C@@H]1CN(C)C(=O)c2ccc(NC(=O)C3CCCC3)cc2OC[C@@H](C)NC[C@H]1C	5.6
Cc1ccc(S(=O)(=O)Nc2ccc3c(c2)C(=O)N([C@H](C)CO)C[C@H](C)[C@@H](CN(C)CC2CC2)O3)cc1	-3.9
CC(=O)N1CCCCN2[C@H](CO)[C@H](c3ccc(-c4cccc(C(=O)N(C)C)c4)cc3)[C@@H]2C1	10.9
COc1ccc(C#Cc2ccc3c(c2)[C@H]2[C@H](CCN2C(C)=O)[C@H](CO)N3)cc1	-13.1

Pulled by compound from above:
SMILES	Yeast UUG start
CN(C[C@H]1N[C@@H](CO)[C@@H]1c1ccc(C2=CCCC2)cc1)C(=O)c1ccccn1	-11.6
C[C@@H]1CN([C@H](C)CO)C(=O)c2cc(NC(=O)Nc3ccccc3)ccc2O[C@H]1CN(C)CC1CCCCC1	8.4
Cc1noc(C)c1S(=O)(=O)N(C)C[C@@H]1Oc2ccc(NS(=O)(=O)c3cccs3)cc2C(=O)N([C@H](C)CO)C[C@@H]1C	1.9

Further entries
SMILES	Yeast UUG start
COCC(=O)N1CCCCN2[C@@H](CO)[C@H](c3ccc(-c4ccc(F)cc4)cc3)[C@@H]2C1	-18.2
O=C(Nc1ccccc1)N1C[C@@H]2[C@H](c3ccccc31)[C@@H](CO)N2C(=O)c1ccccn1	4.2
COc1ccc(-c2ccc3c(c2)[C@@H]2[C@@H](CCN2C(=O)C2CCCCC2)[C@H](CO)N3C)cc1	-1.8
O=C(NCCc1ccncc1)[C@@H]1[C@@H](CO)[C@@H]2Cn3c(ccc(-c4ccncc4)c3=O)[C@H]1N2	23.4
CN1C[C@H]2[C@@H](c3ccccc31)[C@@H](CO)N2C(=O)Nc1cccc(F)c1	-18.1
O=C(NC[C@H]1[C@@H](c2ccccc2)[C@@H](CO)N1C(=O)Cc1cccnc1)C1CC1	-10.8
CCCC(=O)Nc1ccc2c(c1)C(=O)N(C)[C@H]1CC[C@H](CC(=O)N3CCCCC3)O[C@@H]1CO2	-2.2
C[C@H](CO)N1C[C@H](C)[C@H](CN(C)Cc2ccc3c(c2)OCO3)Oc2ccc(NC(=O)Nc3ccc(F)cc3)cc2C1=O	17.1
Cc1ccccc1S(=O)(=O)N1C[C@@H](O)COC[C@@H]2O[C@H](CC(=O)N3CCC(Cc4ccccc4)CC3)CC[C@H]21	12.7
CC(C)NC(=O)N(C)C[C@H]1OCc2ccccc2-c2ccccc2C(=O)N([C@H](C)CO)C[C@H]1C	7.9
Cc1ccc(S(=O)(=O)Nc2ccc3c(c2)C(=O)N([C@@H](C)CO)C[C@H](C)[C@@H](CN(C)C(=O)Nc2ccc(F)cc2)O3)cc1	-6.4
COCC(=O)Nc1ccc2c(c1)C(=O)N(C)C[C@H](OC)[C@H](C)CN(C(=O)C1CCCC1)[C@@H](C)CO2	10.4
CN1C(=O)c2cc(NC(=O)c3cccc(F)c3)ccc2OC[C@H]2O[C@H](CC(=O)Nc3ccccc3)CC[C@@H]21	1.7
C[C@H](CO)N1C[C@H](C)[C@@H](CN(C)C(=O)Nc2ccc(C(F)(F)F)cc2)Oc2c(NS(=O)(=O)c3ccc(Cl)cc3)cccc2C1=O	-6.6
COc1ccc(C(=O)N2C[C@@H]3[C@H](c4ccccc42)[C@@H](CO)N3Cc2ccccc2Cl)cc1	7.0
Cc1ccc(S(=O)(=O)Nc2ccc3c(c2)C(=O)N([C@H](C)CO)C[C@@H](C)[C@@H](CN(C)Cc2ccncc2)O3)cc1	-11.1
CCC(=O)N1CC[C@@H]2[C@@H](CO)Nc3ccc(-c4ccccc4)cc3[C@@H]21	-9.4
CC(C)NC(=O)Nc1cccc2c1O[C@H](CN(C)Cc1ccncc1)[C@H](C)CN([C@H](C)CO)C2=O	-4.3
CC(=O)NC[C@@H]1[C@H](c2ccc(-c3cccnc3)cc2)[C@H](CO)N1C(=O)C1CCC1	-8.1
N#Cc1ccc(-c2ccc3c(c2)[C@@H]2[C@@H](CCN2C(=O)CN2CCOCC2)[C@@H](CO)N3)cc1	-12.6
COc1ccc(NC(=O)N(C)C[C@H]2Oc3ccc(NS(=O)(=O)c4ccc(F)cc4)cc3C(=O)N([C@H](C)CO)C[C@H]2C)cc1	40.5
COc1ccccc1NC(=O)N1CCCCN2[C@H](CO)[C@H](c3ccc(C#Cc4ccccc4)cc3)[C@@H]2C1	-12.7
COc1ccc(CN(C)C[C@@H]2Oc3ccc(NC(=O)CCN4CCOCC4)cc3CC(=O)N([C@H](C)CO)C[C@H]2C)cc1	1.9
COc1cccc(NC(=O)N2C[C@H](O)COC[C@H]3O[C@@H](CC(=O)NC4CCCC4)CC[C@@H]32)c1	6.2
